miR-21 reporter – qHTS Assay for Modulators of miRNAs and/orActivators of miR-21; HeLa miR-21 FLuc reporter, luciferase, 48 h; Potency, µM (top dose mostly 38.3 µM), for inactives: at the top dose reporter change, positive = more light; 340,000 tested, under 10 active; AID 2288, 2010; active = well fitted rising curve with a large enough effect; inconclusive = small, poorly fitted or top-dose-only effect; inactive = no such curve, though single readings can be large or run the other way;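 also: % of control where 0% means no effect; miR-21 action dims this reporter so a rising signal means less miR-21 action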
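Using DMEM plus 10% FBS, HeLa miR-21-FLuc cells are incubated with test compounds (final up to about 40uM) for 48 hours; firefly luciferase signal is then imaged following reagent-mediated lysis.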
GLA inh pH 4.5 – qHTS Assay for Inhibitors of Human alpha-Galactosidase at pH 4.5. purified enzyme, 4-MU-alpha-Gal fluorescence, pH 4.5. activity change, negative = inhibition, % at 105 µM. AID 1467, 2008. 230,000 tested, under 10 active; inconclusive = small, poorly fitted or top-dose-only inhibition, or a rising curve; inactive = flat fitted curve, though single readings scatter; no compound was filed as active;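 also: 0% = full activity with enzyme and -100% = basal without enzyme; dose as in the result columns while the protocol names 77 µM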
Target sequence (P06280 whole entry, looked up): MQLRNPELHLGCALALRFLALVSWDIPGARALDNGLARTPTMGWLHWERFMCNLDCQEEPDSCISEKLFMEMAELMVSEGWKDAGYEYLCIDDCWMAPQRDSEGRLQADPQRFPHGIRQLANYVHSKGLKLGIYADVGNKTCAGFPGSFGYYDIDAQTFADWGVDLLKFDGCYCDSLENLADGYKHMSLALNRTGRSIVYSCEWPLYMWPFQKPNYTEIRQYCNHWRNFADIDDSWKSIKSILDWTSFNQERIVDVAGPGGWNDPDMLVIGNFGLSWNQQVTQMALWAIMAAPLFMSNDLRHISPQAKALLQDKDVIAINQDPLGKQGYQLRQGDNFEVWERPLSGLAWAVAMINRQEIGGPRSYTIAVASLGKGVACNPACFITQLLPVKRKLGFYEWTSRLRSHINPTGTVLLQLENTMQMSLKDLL
Rango-impB inh – qHTS Assay for Inhibitors of Rango (Ran-regulated importin-beta cargo) - Importin beta complex formation. Potency, µM (top dose mostly 92.2 µM), inactives show at the top dose inhibition of complex formation. Importin subunit beta-1 (Homo sapiens), Q14974. 340,000 compounds, 0.031% hits. Rango CFP/YFP FRET sensor + importin beta, 45 min. AID 540263, 2011; active = rising FRET ratio curve, often small or poorly fitted; inconclusive = mostly compound fluorescence or quenching in the first reads; inactive = flat curves in all reads;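 also: potency is read from the fitted curve at half-maximal effect; 0% = DMSO wells and 100% = buffer wells lacking importin beta; nearly all actives have a fitted effect of over 15% in size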
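FRET biosensor (snurportin 1 IBB flanked by EYFP and cerulean), 50 nM, with compound 5 min, then 0.125 microM importin beta in PBS, 1 mM DTT, 0.02% Tween-20, 0.1% BSA. CFP/YFP ratio read after 45 min at room temperature; pre-read flags interference.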
Rango dissoc inh – qHTS Assay for Inhibitors of RanGTP induced Rango (Ran-regulated importin-beta cargo) - Importin beta complex dissociation | Biochemical FRET Rango-importin beta, RanGTP-induced dissociation | 340,000 compounds, 0.071% hits | Snurportin-1 (Homo sapiens) + GTP-binding nuclear protein Ran (Homo sapiens) + Importin … | Potency, µM (doses to about 46.1 µM), for the others: at the highest dose activity change, negative = inhibition; active means falling FRET ratio curve, often poorly fitted, with flat reads before Ran was added; inconclusive means other falling curves, or compound fluorescence or quenching; inactive means flat or rising ratio curve;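 also: potency is read from the fitted curve at half-maximal effect; % of control where 0% means no effect; nearly all actives have a fitted effect of over 45% in size; -100% = wells without RanGTP and RCC1; the record marks most hits as doubtful in a second field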
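Two FRET readings bracket the reaction: one 5 min after compound meets Rango–importin beta, another 45 min after RanGTP-RCC1 (0.6 uM Ran, 0.2 uM RCC1, 2 mM GTP) is added. Only the second defines inhibition.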
Active calls of the source: *; ? = inconclusive; . = not tested or not shown; & = joins results of further samples. Some of the compounds tested, so the mix of outcomes need not match the whole.

Values run as follows: miR-21 reporter, GLA inh pH 4.5, Rango-impB inh, Rango dissoc inh
N#CCCn1cc(C(N)=O)c(-c2cccs2)n1
 : -1%, 2, 1.2%, 9%
C=CCOC(=O)C1=C[C@@H](c2cn(C(C)=O)c3ccccc23)C[C@@H](OCCCCO)O1
 : -3%, 2, -0.4%, -18%
Fc1ccccc1COc1ccc(Br)cc1CNCc1ccncc1
 : 23%, -7, -0.6%, -4%
COC(=O)c1ccccc1NC(=O)CSc1nnc(-c2ccncc2)o1
 : -3%, 3, -1.1%, 16%
O=C(CN1C(=O)COc2ccccc21)N1CCc2ccccc21
 : -6%, 4, 0.7%, 0%
COc1ccc(N(C(=O)c2snc(C(N)=O)c2N)C(C(=O)NCc2ccccc2)c2ccc(O)cc2)cc1OC (centres undefined)
 : -1%, ., ?, -14%
COc1ccc(-c2nn(-c3ccccc3)cc2/C=N/N=C(N)N)cc1OC
 : ?, -8, 3.0%, 7%
C/C(=N/Nc1ccccc1[N+](=O)[O-])c1ccc([N+](=O)[O-])cc1
 : 0%, ., -3.4%, -6%
Cc1ccc(NS(=O)(=O)c2cccc(C(=O)N/N=C/c3ccc4c(c3)OCCO4)c2)c(C)c1
 : -12%, -1, 0.4%, 5%
CC(C)Oc1ccc(CC2CCC(=O)N(C)C2=O)cc1 (centres undefined)
 : -16%, -13, 3.2%, -2%
C/C(=N\NC(=O)COc1ccc(C)cc1[N+](=O)[O-])c1cccs1
 : -9%, -5, -5.9%, 6%
NC(=O)c1nsc(C(=O)N(c2cccc(F)c2)C(C(=O)NCC2CCCO2)c2c[nH]c3ccccc23)c1N (centres undefined)
 : -17%, ., ?, 3%
COc1cc(/C=C(/C#N)c2ccccc2)ccc1Oc1ccc([N+](=O)[O-])cn1
 : 15%, -20, -2.5%, 7%
C/C(=N\Nc1nccnc1Cl)c1ccc(Cl)c(Cl)c1
 : -46%, ., 7.5%, 21%
COc1cc2c(c(OC)c1OC)C(=O)C(=Cc1ccccc1)O2
 : ., ., 0.8%, 14%
O=C(COc1ccc(Br)cc1)Nc1ccncc1
 : 1%, 3, 4.5%, 18%
CC(=O)Nc1nc(=S)ss1
 : -3%, -1, 4.2%, -2%
S=C(NCCc1ccccn1)Nc1ccccc1Cl
 : -13%, -2, 1.6%, -8%
Cc1ccc(C(=O)NCc2ccccn2)c(Cl)c1
 : -39%, 6, -2.4%, 5%
CCC1(C)COC(C)(CC(=O)NNC(=O)Nc2ccccc2)OC1 (centres undefined)
 : 0%, 9, -3.7%, 32%

Later entries
Values run as follows: miR-21 reporter, GLA inh pH 4.5, Rango-impB inh, Rango dissoc inh
O=c1nc(N2CCCCCC2)nc(N2CCCCCC2)[nH]1
 : 2%, -13, -0.8%, 19%
O=C(NC1CC1)c1cc(Cl)nc2ccccc12
 : ., ., 1.2%, 2%
CCOc1cc(N2CCOCC2)c(OCC)cc1NC(=O)C1CC(=O)N(c2ccccc2OCC)C1 (centres undefined)
 : ., ., -1.1%, 2%
CC(OC(=O)c1nsc(Cl)c1Cl)C(=O)NC1CCCCC1 (centres undefined)
 : 0%, ., 1.1%, -12%
COc1cc(/C=N/NS(=O)(=O)c2ccc3ccccc3c2)ccc1OCCN1CCOCC1
 : -30%, 2, 1.4%, 17%
Cc1cccc(Nc2ccccc2C(=O)O)c1C
 : -7%, 4&3&10, -0.6%, -4%
CCOC(=O)C(=CNc1ccc(Oc2cccnc2)nc1)C(=O)OCC
 : 17%, -3, -1.8%, 11%
Cc1cccc2c3c([nH]c12)CCNC3
 : -7%, ., -0.7%, -18%
CCOc1cc(CNCCc2ccc(S(N)(=O)=O)cc2)ccc1OCC(=O)NC(C)(C)C
 : 13%, 6, -2.8%, 1%
O=C(Nc1nnc(CCOCCOCCc2nnc(NC(=O)c3ccco3)s2)s1)c1ccco1
 : -1%, -14, -0.2%, -2%
Nc1c(C(=O)NCc2ccco2)sc2nc(N3CCOCC3)c3c(c12)CCCC3
 : -25%, -6, -2.7%, -21%
Cc1ccc(C(Sc2ccccc2)C(Cn2cncn2)C(=O)c2ccccc2)cc1 (centres undefined)
 : 22%, -10, -0.6%, -4%
O=C(CSc1n[nH]c(-c2ccccc2)n1)NC1CCCCC1
 : -6%, ., 0.5%, 5%
C=CCNC(=O)c1ccccc1NC(=O)c1ccccc1SC
 : -1%, 6, 0.5%, -5%
Cc1nc2c(Cl)c(C)nn2c2c1CCC2
 : -5%, 5, -2.1%, -11%
COc1ccc(CC(=O)OCC(=O)Nc2ccc(Cl)c(S(=O)(=O)N(C)C)c2)cc1
 : 1%, -8, 0.4%, -11%
Cn1c(=O)n(C)c2cc3[nH]cnc3cc21
 : 5%, ., -0.8%, -6%
COc1ccc(CCNC(=O)COc2cc(O)c3c(c2)OC(C)(C)CC3=O)cc1
 : 1%, ., -0.1%, 1%
COC(=O)c1ccc(C(=S)N2CCCCC2)cc1
 : -4%, -20, -1.7%, -5%
Cc1nn(-c2ccccc2)c(Cl)c1/C=N/Nc1nnc(C)c(=O)[nH]1
 : -4%, 13, 3.1%, 11%

Following part.
Values run as follows: miR-21 reporter, GLA inh pH 4.5, Rango-impB inh, Rango dissoc inh
CC1(C)CC(NC(=O)c2sc3cc(Cl)ccc3c2Cl)CC(C)(C)N1
 : -4%, 1, 2.0%, 3%
Cn1sc(=O)c2cc(S(=O)(=O)NC3CC3)ccc21
 : 2%, -2, 2.0%, 3%
COc1cccc(CNC(=O)CSc2nc(=O)n(Cc3ccncc3)c3c2CCC3)c1
 : ., ., -2.1%, -4%
CC1=CC(C)(C)N2C(=O)C3(C(C#N)=C(N)Oc4cc(C)oc(=O)c43)c3cc(C)cc1c32 (centres undefined)
 : ., ., -1.4%, 6%
O=C(Nc1ccc(Cl)cc1)N1CC=CCC1
 : -41%, 0, -0.4%, -9%
CCCCN(CCO)CCCC
 : ., ., 2.1%, -15%
Cc1ccc(N(c2ncnc(N)c2[N+](=O)[O-])C2CCCCC2)cc1
 : 0%, -2, 2.0%, 24%
N#Cc1ccccc1CSc1nc(N)cc(N)n1
 : -12%, ., 5.5%, 1%
Cc1nc2c(-c3ccccc3)c(C)nn2c(N)c1-c1ccccc1
 : -77%, -9, -1.8%, 17%
Cc1cc(NC(=O)CCC(=O)N(Cc2ccco2)C(C(=O)NC2CCCC2)c2ccccc2F)no1 (centres undefined)
 : 4%, ., ?, 4%
COCCN1CC(C(=O)N2CCC(Oc3ccccc3OC)CC2)CCC1=O (centres undefined)
 : -2%, ., 2.5%, 18%
CC(=O)Nc1ccc(C(=O)OCC(=O)c2ccc(F)cc2)cc1
 : -3%, 4, 0.2%, 18%
O=C(CCCC(=O)Nc1cccc(Br)c1)N/N=C/c1cc([N+](=O)[O-])ccc1O
 : 17%, ., 1.4%, -8%
NC(=O)C1CCN(c2ccc([N+](=O)[O-])cc2Cl)CC1
 : -1%, 0, 3.0%, 1%
CN(C)CCCN(Cc1cc2cc3c(cc2[nH]c1=O)OCCO3)C(=O)NC1CCCCC1
 : -7%, 12, 1.0%, 3%
COc1ccc(CC(=O)N/N=C/c2cccn2-c2ccc([N+](=O)[O-])cc2)cc1OC
 : 8%, -4, ?, 1%
CCOC(=O)N1CCC(N2Cc3cccc(C(=O)Nc4cccc(F)c4)c3C2=O)CC1
 : 0%, -6, 2.5%, -12%
CCN1CCN(C(=O)/C=C/c2ccc(F)cc2)CC1
 : ., ., -1.8%, 4%
NC(=O)NC(=O)COC(=O)CCSc1ccccc1
 : -4%, 3, 0.0%, 22%
CC(NS(=O)(=O)c1ccc(OCC(=O)N2CCOCC2)c(Cl)c1)c1ccccc1 (centres undefined)
 : -1%, -8, 1.1%, -9%

The listing continues.
Values run as follows: miR-21 reporter, GLA inh pH 4.5, Rango-impB inh, Rango dissoc inh
CCN(C[C@H]1N[C@@](Cc2ccccc2)(C(=O)OC)[C@H]2C(=O)N(Cc3ccccc3)C(=O)[C@@H]12)C(=O)COc1ccccc1
 : ., ., -0.4%, 12%
O=C(NC1CCCCCCC1)c1ccccc1-c1ccccc1
 : 1%, 0, -0.1%, 1%
Cc1cc(C)n(-c2nc(NCC3CCCO3)c3c4c(sc3n2)COC(C)(C)C4)n1 (centres undefined)
 : 17%, 9, 0.7%, 4%
CCN1C(=NCCc2cccnc2)N[C@@H](c2ccccc2)C(C(=O)OC)=C1C
 : -2%&-1%, ., -0.3%, 14%
COC(=O)CCC(=O)Nc1cc(S(=O)(=O)Nc2ccc(Cl)cc2)ccc1N1CCOCC1
 : -5%, 12, 2.5%, -15%
COc1ccc(N2CCN(C(=O)CCNC(=O)c3ccccc3)CC2)cc1
 : -1%, 6, -0.2%, 5%
O=C1c2ccccc2C(O)N1c1ccccc1 (centres undefined)
 : -14%, ., 5.8%, -2%
O=C(NC1CCCCC1)C1CCCN1C(=O)NCc1ccccc1 (centres undefined)
 : -10%, 13, -0.3%, -3%
CC(=O)OC[C@H]1O[C@@H](n2ncc(=O)[nH]c2=O)[C@H](OC(C)=O)[C@@H]1OC(C)=O
 : ?, 2, 3.8%, 0%
C[C@H](CO)N1C[C@H](C)[C@@H](CN(C)S(=O)(=O)c2ccccc2)Oc2ccc(NC(=O)Nc3ccc4c(c3)OCO4)cc2C1=O
 : ., ., -4.8%, -28%
CCc1ccc(-n2cccc2/C=C2/C(=N)N3C(=NC2=O)SN=C3S(C)(=O)=O)cc1
 : -3%, -13, ?, -16%
C=CC[C@H](CC(=O)N[C@H](CO)Cc1ccccc1)C(=O)N[C@H](COC(=O)[C@@H](CC=C)CC(=O)OC(C)(C)C)Cc1c[nH]c2ccccc12
 : ., ., -1.7%, 1%
C=CCNC(=S)N1CCN(C2CCCCC2)CC1
 : 3%, -3, 1.4%, 0%
CCc1nc2ccccc2c(=O)n1NC(=O)c1c(O)c2ccccc2n(CC)c1=O
 : -2%, -2, 0.0%, 3%
CC1CCN(CC(=O)Nc2ccccc2C#N)CC1
 : -8%, 4, ?, -2%
CCCOc1ccc(-c2c(C(=O)N/N=C(\C)c3cccs3)nnn2-c2nonc2N)cc1
 : 0%, ., ?, 11%
O=C(NCCCO)C12CC3CC(CC(C3)C1)C2
 : ., ., 0.8%, -14%
CC(=C/c1ccco1)/C=N/NC(=O)CSc1nnc(SCc2ccc(C)cc2)s1
 : 30%, 0, -0.2%, 19%
CS(=O)(=O)c1nc(S(=O)(=O)c2ccc(Cl)cc2)c(N2CCOCC2)s1
 : 6%, ., ?, 18%
CCNC(=O)COC(=O)CCC(=O)c1cccs1
 : 2%, -7, 6.0%, 1%

Further records follow.
Values run as follows: miR-21 reporter, GLA inh pH 4.5, Rango-impB inh, Rango dissoc inh
COC(=O)c1ccc(-c2noc(CN3CCCC(CNC(C)=O)C3)n2)cc1 (centres undefined)
 : -3%, -11, -1.2%, 12%
COc1ccc(Br)c(C(=O)NNC(=O)c2ccc(NS(=O)(=O)c3cccs3)cc2)c1
 : ., ., -0.7%, 8%
O=C(COC(=O)c1ccc(F)c(S(=O)(=O)N2CCOCC2)c1)c1ccc(Br)cc1
 : ., ., -2.5%, -6%
CCn1ncc(Br)c1C(=O)Nc1ccccc1C(=O)OC
 : ., ., 0.5%, -2%
O=C(Cc1ccc(S(=O)(=O)N2CCOCC2)s1)OCc1ccc(Cl)cc1
 : ., ., 2.5%, -12%
COc1ccccc1[C@]1(C)ON(c2ccccc2C(F)(F)F)C1=O
 : ., ., 0.0%, 2%

In the list so far, these contain a tert-butyl group.
Values run as follows: miR-21 reporter, GLA inh pH 4.5, Rango-impB inh, Rango dissoc inh
CCOc1cc(CNCCc2ccc(S(N)(=O)=O)cc2)ccc1OCC(=O)NC(C)(C)C
 : 13%, 6, -2.8%, 1%
C=CC[C@H](CC(=O)N[C@H](CO)Cc1ccccc1)C(=O)N[C@H](COC(=O)[C@@H](CC=C)CC(=O)OC(C)(C)C)Cc1c[nH]c2ccccc12
 : ., ., -1.7%, 1%

Screens (PubChem)
